PV pol inh = poliovirus RdRp elongation inhibitors, primary screen, biochemical, fluorescence polarization, total intensity | Genome polyprotein (Poliovirus type 1 (strain Mahoney)), P03300 | poliovirus polymerase elongation; hits give low values | % elongation, % (compound at 16.7 µg/mL) | 0.66% of 150,000 active; in the data active = % elongation below about 90%; note: some results filed as inactive read as strong as hits
Target sequence (P03300 1749-2209 limits assumed): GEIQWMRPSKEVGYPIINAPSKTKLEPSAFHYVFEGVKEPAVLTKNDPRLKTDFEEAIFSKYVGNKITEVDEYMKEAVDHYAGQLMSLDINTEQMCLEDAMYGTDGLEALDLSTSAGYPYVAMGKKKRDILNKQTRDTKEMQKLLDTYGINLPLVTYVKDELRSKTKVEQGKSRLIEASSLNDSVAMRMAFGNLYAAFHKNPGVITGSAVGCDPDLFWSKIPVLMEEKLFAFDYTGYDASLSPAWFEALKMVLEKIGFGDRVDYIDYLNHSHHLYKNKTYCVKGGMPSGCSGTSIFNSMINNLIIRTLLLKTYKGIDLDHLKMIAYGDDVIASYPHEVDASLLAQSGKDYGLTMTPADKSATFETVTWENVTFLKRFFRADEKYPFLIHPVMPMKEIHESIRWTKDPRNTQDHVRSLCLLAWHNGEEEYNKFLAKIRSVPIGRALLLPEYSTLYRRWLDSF
PV pol inh intensity = also measured in PV pol inh; calls as there; % elongation; measured here: total intensity read-out; formula for this scale not given here;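 total fluorescence in place of polarization; lower means less elongation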
* hit, by the source's call. An excerpt; count on the stated rates, not on these rows.

Structure | PV pol inh intensity | PV pol inh
Cc1ccc(C)c(N2CCN(C(=O)CN3CCSc4ccccc43)CC2)c1 | 108 | 102
Cc1ccc(C(=O)Nc2ccc(Br)cc2)cc1S(=O)(=O)N1CCOCC1 | 99 | 101
CCCCOC(=O)c1cccc(NC(=O)/C=C/c2ccccc2Cl)c1 | 104 | 101
CC(NC(=O)c1sc2ncccc2c1-n1cccc1)c1ccccc1 (configuration not stated) | 106 | 107
O=c1c(N2CCN(c3cccc(Cl)c3)CC2)csc2ccc(Cl)cc12 | 98 | 111
CCCNC(=O)Cn1nc(-c2ccc(C)c(C)c2)c2cnc3ccc(F)cc3c21 | 106 | 103
CCOC(=O)c1cc(S(=O)(=O)Nc2cc(C)c(Cl)cc2OC)[nH]n1 | 110 | 108
Cc1ccc(-n2c(-c3cccc(C)c3)nc3c(cnn3-c3ccccc3)c2=O)cc1 | 105 | 102
O=C(Nc1nnc(S(=O)(=O)N2CCCC2)s1)c1ccccc1Br | 106 | 104
CN(C)c1ccc(CNC(=O)CN(C)S(=O)(=O)c2ccc3c(c2)c(=O)n(C)c(=O)n3C)cc1 | 100 | 105
CCN1CCC(N(Cc2ccc3c(c2)OCO3)C(=O)Nc2cc(Cl)ccc2C(=O)OC)CC1 | 108 | 116
CC(C)(C)C(=O)Nc1ccc2nc(SCC(=O)N3CCCC3)sc2c1 | 110 | 112
CSc1cccc(N2C(=O)N(CC(=O)NCc3ccccc3Cl)c3ccccc3S2(=O)=O)c1 | 96 | 104
Cc1ccc(CNC(=O)CCc2c(C)nc3c(-c4ccc(F)cc4)c(C)nn3c2C)cc1 | 110 | 107
CC1=C(C(=O)Nc2ccc(C)cc2C)C(c2ccccc2[N+](=O)[O-])n2ncc(C(=O)Nc3ccccc3)c2N1 (configuration not stated) | 117 | 106
Cc1cccc(C(=O)Nc2ccc(N3CCN(c4ccc(F)cc4)CC3)c(C(=O)O)c2)c1 | 115 | 107
CCOC(=O)c1c(-c2ccccc2)csc1NC(=O)c1cc(=O)c2ccc(C)cc2o1 | 111 | 112
COc1cccc(-c2cc(C(=O)Nc3ccc(Br)c(C)c3)[nH]n2)c1 | 112 | 108
CCOc1ccc(NC(=O)Cn2cc(C(=O)c3ccc(CC)cc3)c(=O)c3cc4c(cc32)OCO4)cc1 | 109 | 105
CCc1ccc(CNC(=O)CN2C(=O)c3cccnc3Oc3ccc(Cl)cc32)cc1 | 109 | 103

Ordered by count of non-hydrogen atoms (falling): some entries from above
Structure | PV pol inh intensity | PV pol inh
CC1=C(C(=O)Nc2ccc(C)cc2C)C(c2ccccc2[N+](=O)[O-])n2ncc(C(=O)Nc3ccccc3)c2N1 (configuration not stated) | 117 | 106
CCCCOC(=O)c1cccc(NC(=O)/C=C/c2ccccc2Cl)c1 | 104 | 101
COc1cccc(-c2cc(C(=O)Nc3ccc(Br)c(C)c3)[nH]n2)c1 | 112 | 108

New compounds follow.
Structure | PV pol inh intensity | PV pol inh
CCOc1ccccc1NC(=O)c1c(NCc2ccc(C)o2)sc2c1CCC(C)C2 (configuration not stated) | 104 | 102
CCN1CCN(CCCNC(=O)c2cc3c(=O)n(CC)c4ccccc4c3s2)CC1 | 105 | 99
CC(Sc1oc(-c2ccco2)nc1S(=O)(=O)c1ccc(Br)cc1)c1ccccc1 (configuration not stated) | 102 | 101
COc1ccccc1NC(=O)N1CC(=O)Nc2sc3c(c2C1c1ccccc1)CCCC3 (configuration not stated) | 100 | 106
COc1ccc(-c2cc(-c3ccccc3)nc(SCC(=O)CC(=O)OC(C)C)c2C#N)cc1 | 111 | 105
CCCOc1ccc(Nc2nc(SC)ncc2C(=O)OCC)cc1 | 105 | 110
COc1ccc(N2CC(NC(=O)COc3cccc(C)c3)CC2=O)cc1OC (configuration not stated) | 109 | 103
COc1ccc(-c2nc3c4ccccc4n(CC(=O)Nc4ccc(C(C)=O)cc4)c(=O)n3n2)cc1 | 114 | 110
CCCn1ccc2c(OCC(=O)Nc3ccccc3C(=O)OCC)cccc2c1=O | 108 | 105
CCC(Sc1nc2n[nH]c(C)c2c(=N)n1-c1ccccc1Cl)C(=O)N(CC)CC (configuration not stated) | 105 | 106
Cc1cc(C)cc(NC(=O)CCCn2nc(C)c3c(C)n(-c4ccccc4)nc3c2=O)c1 | 110 | 106
CC(=O)c1ccc(NC(=O)C2CCN(S(=O)(=O)c3ccc4[nH]c5c(c4c3)CCCCC5)CC2)cc1 | 111 | 112
COc1cc(C(=O)Nc2sc3c(c2C#N)CCCC3)c(Br)c(OC)c1OC | 108 | 106
CSc1ccc(CNC(=O)CCn2c(=O)c3cccn3c3ccc(F)cc32)cc1 | 104 | 103
Cc1ccc(CNC(=O)c2ccc(-n3c(C)cc4c3CCCC4)cc2)cc1 | 109 | 106
O=c1oc2ccc3ccccc3c2cc1-c1nnc(Nc2ccc(F)cc2)s1 | 133 | 118
CCN(CC)CCCNC(=O)Cn1c(-c2cccs2)cc2cc(Cl)ccc21 | 114 | 115
CCOC(=O)c1ccc(NC(=O)CCc2c(C)nc3c(c(C)nn3C)c2C)cc1 | 110 | 104
CCc1nc(Nc2ccc(F)c(Cl)c2)c2c3c(sc2n1)CCCC3 | 85* | 85*
Cc1c2cnn(CC(=O)N3CCN(c4ccc(F)cc4)CC3)c(=O)c2c(C)n1Cc1ccccc1F | 106 | 110

Whole records, looked up by structure. Order of screens: PV pol inh intensity, PV pol inh
`CCN1CCN(CCCNC(=O)c2cc3c(=O)n(CC)c4ccccc4c3s2)CC1` is listed as 105, 99
`CCOc1ccccc1NC(=O)c1c(NCc2ccc(C)o2)sc2c1CCC(C)C2` (configuration not stated) is listed as 104, 102
`CCc1nc(Nc2ccc(F)c(Cl)c2)c2c3c(sc2n1)CCCC3` is listed as 85*, 85*
`CCCOc1ccc(Nc2nc(SC)ncc2C(=O)OCC)cc1` is listed as 105, 110
`CC(Sc1oc(-c2ccco2)nc1S(=O)(=O)c1ccc(Br)cc1)c1ccccc1` (configuration not stated) is listed as 102, 101

(more compounds)
Structure | PV pol inh intensity | PV pol inh
CCC(C)c1ccc(OCC(=O)Nc2cccc(-c3nc4ncccc4o3)c2)cc1 (configuration not stated) | 107 | 106
O=C(Nc1ccc(F)cc1F)c1ccc2c(O)c(S(=O)(=O)c3ccc(Cl)cc3)c(=O)[nH]c2c1 | 101 | 97
Cc1cccc(N2CCN(C(=O)c3cnn(-c4cccc(Cl)c4C)c3C3CCNCC3)CC2)c1C | 102 | 101
CCC(=O)N1c2ccccc2CC1C(=O)NCCc1ccccc1 (configuration not stated) | 113 | 103
COc1ccc(-n2c(=O)c3c4c(sc3n(Cc3cc(=O)n5c(C)cccc5n3)c2=O)CCC4)c(OC)c1 | 103 | 100
CC(C)C(=O)N1c2ncnn2C2(CCCCC2)[C@@H]2CCCC[C@@H]21 | 105 | 98
Cc1cccc(NC(=O)Cn2cc(S(=O)(=O)Cc3ccccc3Cl)c3ccccc32)c1 | 113 | 109
O=C(NCCSc1c(-c2ccc(Cl)cc2)[nH]c2ccccc12)c1ccc(S(=O)(=O)N2CCOCC2)cc1 | 110 | 109
Cc1ccc(-c2nc3n(n2)C(=O)CC(c2ccc(Cl)cc2)S3)cc1 (configuration not stated) | 110 | 108
O=c1oc2ccc(Br)cc2cc1-c1csc(-c2ccccc2)n1 | 115 | 107
Clc1cccc(N2CCN(c3ncnc4c3nc3n4CCCCC3)CC2)c1 | 105 | 102
Cc1ccc(-c2c3c(=O)n(C)c(=O)n(C)c3c3c(-c4cccc(C)c4)nc4ccccc4n23)cc1 | 111 | 105
CCc1ccc(NCc2cc3cc4c(cc3n(CC(=O)Nc3cccc(OC)c3)c2=O)OCO4)cc1 | 109 | 100
COc1ccc(-c2cccc(NS(=O)(=O)c3cccs3)c2)nn1 | 109 | 102
Cc1ccc(-c2nc3ncccc3o2)cc1NC(=O)c1ccc(-c2ccc(Cl)cc2)o1 | 103 | 102
Cc1ccc(N2CCN(S(=O)(=O)c3c(C)[nH]c(=O)[nH]c3=O)CC2C)cc1 (configuration not stated) | 116 | 106
Cc1ccc(Cn2c(=O)n(CCCCC(=O)NCc3ccccc3Cl)c(=O)c3ccccc32)cc1 | 109 | 107
COc1cccc(CNC(=O)CSc2n[nH]c(-c3ccccc3Cl)n2)c1 | 113 | 109
CCOc1ccc(OCC)c(NC(=O)c2cc(CN3CCOCC3)on2)c1 | 105 | 107
Cc1ccccc1-c1noc(-c2cccnc2N2CCN(c3ccccc3)CC2)n1 | 101 | 109
O=C(CSc1nc(-c2ccccc2)nc2c1CCCC2)c1ccc(Cl)cc1 | 110 | 108
CCOC(=O)c1c(C)[nH]c(C)c1S(=O)(=O)N1CCCC(C(=O)Nc2cccc(C)n2)C1 (configuration not stated) | 96 | 105
CCOc1ccc(NC(=O)C2CCC(CNS(=O)(=O)c3ccc4c(c3)CCCC(=O)N4)CC2)cc1 (configuration not stated) | 109 | 110
CCOC(=O)Cc1ccc(NC(=O)Nc2c[nH]c(=O)[nH]c2=O)cc1 | 102 | 95
CCOc1ccccc1C(=O)Nc1ccc(S(=O)(=O)N2CCCCC2c2cccnc2)cc1 (configuration not stated) | 100 | 105
CCCOc1cccc(NC(=O)c2c(-c3ccccc3Cl)noc2C)c1 | 105 | 103
COc1ccc(-c2nc3nc(C)cc(Nc4ccc(C(C)=O)cc4)n3n2)cc1 | 106 | 105
CC(C)CC(=O)Nc1ccc2nc(SCC(=O)N3CCOCC3)sc2c1 | 107 | 111
CCN1CCN(C(=O)c2cnn(-c3ccc(F)cc3F)c2C2CCN(C(=O)OC(C)(C)C)CC2)CC1 | 102 | 101
CC(=O)c1cccc(NC(=O)CSc2ncc3c(n2)-c2cc(Cl)ccc2N(Cc2ccccc2)S3(=O)=O)c1 | 119 | 112
CCn1cc(C(=O)NCCCOC(C)C)c(=O)c2cc(S(=O)(=O)N3CCOCC3)ccc21 | 100 | 106
Cc1ccc(/C=C/c2onc(C)c2S(=O)(=O)N2CCC(C(=O)N3CCOc4ccc(C)cc43)CC2)cc1 | 103 | 105
COc1cc(-c2nc(-c3ccccc3)c(-c3ccc(Br)cc3)[nH]2)cc(OC)c1O | 111 | 111
CCOC(=O)c1ccc(N2CCN(c3cccc(Cl)c3)CC2)c(NC(=O)Nc2ccc(OC)cc2OC)c1 | 107 | 105
O=C(CN1C(=O)COc2ccc(S(=O)(=O)N3CCCCCC3)cc21)N1CCN(c2cccc(Cl)c2)CC1 | 111 | 104
Cc1cccc(Cn2nnc3c(=O)[nH]c(C4CCCN(C(=O)c5ccc(C(C)(C)C)cc5)C4)nc32)c1 (configuration not stated) | 112 | 111
Cc1ccc(S(=O)(=O)c2nnn3c2nc(N2CCN(c4ccccc4F)CC2)c2cc(Cl)ccc23)cc1C | 108 | 103
COc1ccc(OC)c(CNS(=O)(=O)c2c(C(=O)N3CCCCCC3)c(C)n(C)c2C)c1 | 92 | 106
CCCOc1ccc(C(=O)Nc2cccc(-c3nc4ccccc4[nH]3)c2)cc1 | 102 | 103
Cc1ccc(-c2nc(C)c(CCNS(=O)(=O)c3ccccc3F)s2)cc1 | 106 | 106

By substructure, the compounds so far containing a cyano group.
Structure | PV pol inh intensity | PV pol inh
COc1ccc(-c2cc(-c3ccccc3)nc(SCC(=O)CC(=O)OC(C)C)c2C#N)cc1 | 111 | 105
COc1cc(C(=O)Nc2sc3c(c2C#N)CCCC3)c(Br)c(OC)c1OC | 108 | 106

(continued)
Structure | PV pol inh intensity | PV pol inh
Cc1ccc(Nc2ncnc3sc4c(c23)CCC(C)C4)cc1C (configuration not stated) | 112 | 105
O=C(CN1C(=O)C2CCCCN2c2ccc(C(=O)N3CCCC3)cc21)NCc1cccc(F)c1 (configuration not stated) | 110 | 104
Cc1cccc(C)c1OC(=O)CSc1nnc(-c2cccs2)o1 | 116 | 109
CCCCOc1ccc(C(C)NC(=O)CN2C(=O)CSc3ccc(S(=O)(=O)N4CCOCC4)cc32)cc1 (configuration not stated) | 112 | 112
O=C(CSc1nc2ccccc2nc1Cc1ccccc1)N1CCN(c2ccccc2)CC1 | 106 | 105
CCOc1ccc(OCC)c(NS(=O)(=O)c2cc(Br)cc3c2N(C(C)=O)C(C)C3)c1 (configuration not stated) | 106 | 104
CC(=O)Nc1ccc(NC(=O)CC2Sc3ccccc3NC2=O)cc1 (configuration not stated) | 93 | 103
O=C(COc1ccc(Cl)cc1)NCC(c1ccco1)S(=O)(=O)c1ccccc1 (configuration not stated) | 111 | 112
COc1cc(Nc2nc(SCc3cccc(Cl)c3)nc3ccccc23)cc(OC)c1 | 110 | 103
CCCS(=O)(=O)c1nc(S(=O)(=O)c2ccc(C)cc2)c(N(CC)CC)s1 | 105 | 104
COc1ccc(NC(=O)C2CCN(S(=O)(=O)c3ccc4c(c3)CCCC(=O)N4)CC2)cc1Cl | 105 | 111
COc1ccc(OC)c(NC(=O)c2ccc(-c3nc(CSc4ccccc4)c(C)o3)cc2)c1 | 101 | 105
Cc1cc(C)cc(-n2c(SCC(=O)Nc3ccc4c(c3)OCCO4)nc3c([nH]c4ccccc43)c2=O)c1 | 101 | 110
CCCN1C(=O)c2[nH]nc(-c3ccccc3O)c2C1c1cccc(OCc2ccccc2)c1 (configuration not stated) | 109 | 112
O=C(OCc1cc(=O)n2c3c(sc2n1)CCCC3)c1cccc(NC(=O)c2ccccc2F)c1 | 103 | 100
CCN1CCOC(=O)C1CC(=O)Nc1cc(C)cc(C)c1 (configuration not stated) | 99 | 99
CCOC(=O)C1=C(CS(=O)(=O)c2ccc(F)c(C)c2)NC(=O)NC1c1ccccc1OC (configuration not stated) | 101 | 102
CCN(CC)C(=O)Cn1c(=O)n(Cc2ccc(C(=O)NCCc3ccc(OC)c(OC)c3)cc2)c(=O)c2ccccc21 | 110 | 107
COc1ccc(C(F)(F)F)cc1NC(=O)c1sc2nc(-c3cccs3)ccc2c1N | 112 | 111
CCC(=O)N1CCc2cc(S(=O)(=O)CCC(=O)N3CCN(c4cccc(Cl)c4)CC3)ccc21 | 113 | 108
Cc1cc(C)cc(C(=O)n2nc(C)c(S(=O)(=O)N3CCOCC3)c2C)c1 | 105 | 109
Cc1cccc(C(=O)NC2(C(F)(F)F)N=C(c3ccccc3)N(Cc3ccccc3)C2=O)c1 (configuration not stated) | 110 | 109
CCc1ccccc1NC(=O)Cc1ccc(-n2c(C)nc3cccnc32)cc1 | 114 | 113
Nc1c(C(=O)Nc2cccc(F)c2)sc2nc(-c3cccs3)ccc12 | 180 | 113
